Screening results: PubChem, several laboratories
T cruzi inh = blocks replication of Trypanosoma cruzi; inhibition, % (concentration not given with the values); AID 1885; 1.4% of 300,000 active; T. cruzi beta-gal in NIH3T3, luminescence, 90 h;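 active = mean inhibition across valid replicates above about 55%, limit read from the data; inconclusive = mean below that limit but half or more replicates reach it; inactive = mean below it, under half of replicates reach it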;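 note: signal also drops with host cell toxicity which is not excluded here; 0% = plate median of DMSO wells and 100% = zero luminescence signal; higher percent means less beta-gal luminescence so fewer parasites; stock transfer was 50 nL into about 50 µL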
A1 inh = inhibitors of the anti-apoptotic protein A1, read as caspase activation; MEF A1-2A-BIM cells, Caspase-Glo 3/7 luminescence, 3 h; percent of clofoctol response, vehicle zero; 0.066% of 330,000 active; caspase activation, % (concentration not given with the values);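 active = over half of replicate activation scores above 10%, or exactly half above 10 with the replicate mean above 10; inconclusive = replicate mean below 10 yet half the replicates above 10; inactive = over half of replicates below 10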;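 note: wells of about 30 µL received 50 nL stock; many hits fall short of the cut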
MLL AF4-AF9 inh = blocks AF4 peptide binding to human AF9; P42568; 0.47% of 350,000 active; AlphaScreen, biotin-AF4 peptide binding to FLAG-AF9; inhibition, % at 10 µM;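 active = every replicate reaching a set inhibition limit, whatever the replicate mean, cut at about 25% in these data; inconclusive = mean inhibition reaches that limit but some replicates miss it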;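 note: 0% = plate neutral control median and 100% = total signal loss; the record names both 10 and 1 µM as test concentration; the first replicate is given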
Target sequence (P42568 whole entry, looked up): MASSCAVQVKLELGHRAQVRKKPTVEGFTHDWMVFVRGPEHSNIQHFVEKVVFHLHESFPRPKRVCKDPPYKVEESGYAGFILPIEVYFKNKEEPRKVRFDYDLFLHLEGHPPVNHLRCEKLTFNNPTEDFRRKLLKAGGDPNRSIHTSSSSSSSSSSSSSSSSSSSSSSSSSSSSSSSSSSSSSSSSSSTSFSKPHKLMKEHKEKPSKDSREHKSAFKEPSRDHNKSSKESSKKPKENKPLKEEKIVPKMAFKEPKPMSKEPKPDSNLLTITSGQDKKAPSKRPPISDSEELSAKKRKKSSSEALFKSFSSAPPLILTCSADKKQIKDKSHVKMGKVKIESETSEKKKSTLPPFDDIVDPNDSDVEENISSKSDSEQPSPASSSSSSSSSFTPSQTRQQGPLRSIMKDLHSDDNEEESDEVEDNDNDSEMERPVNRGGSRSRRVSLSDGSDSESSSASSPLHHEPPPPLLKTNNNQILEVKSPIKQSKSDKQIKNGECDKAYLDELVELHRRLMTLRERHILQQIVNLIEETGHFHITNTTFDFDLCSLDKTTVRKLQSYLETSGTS
Beta apoptosis = beta cell apoptosis inhibition; protection from apoptosis, % (no concentration beside the values); INS-1E cytokine-induced death, ATP luminescence, 48 h; percent of positive-control rescue, neutral wells zero; 0.8% of 300,000 active;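 active = all replicates at 75% or more, or half of them and the mean; inconclusive = half reach 75% but not the mean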;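 note: 0% = cytokine-treated negative control wells and 100% = positive control rescue; higher means more ATP so stronger rescue from cytokine killing; wells of about 40 µL received 100 nL stock; the first replicate is given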
Calb FLC = C. albicans growth modulation with fluconazole | C. albicans CaCi-2 (fluconazole-resistant clinical isolate) + fluconazole, Alamar Blue growth, 48 h | growth inhibition, % (test concentration not listed) | 0.57% of 300,000 active;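 active = most replicates above 75%; inconclusive = exactly half above 75%; inactive = most below 75%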;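 note: all wells also contain fluconazole at 8 µg/ml as a sub-toxic cotreatment; 0% = median of DMSO wells and 100% = median of geldanamycin control wells; wells of about 8 µL received 7.5 nL stock; the first replicate is given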
Ecoli rRNA inh = inhibitors of bacterial rRNA selective over humanized ribosomes | 1.6% of 350,000 active | AID 720706 | GFP signal change (wild-type ribosome), % (test concentration not listed) | E. coli WT GFP vs humanized-ribosome RFP mutants, fluorescence, 24 h; hits give low values; DMSO median 0, no signal -100;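 active = significant combined selectivity score with lowered wild-type GFP, culture density cut under 30%, mutant RFP and density less affected; inactive = any of these conditions unmet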; note: one replicate is shown; some compounds called inactive have numbers as strong as hits
RanGTP-Imp inh = disruptors of Ran-importin-beta complex formation – biochemical, FRET, CFP-Ran, YFP-importin-beta, homogeneous, primary screen; cell-free CFP-Ran/YFP-importin-beta FRET ratio; inhibition, % (no concentration beside the values); 1.1% of 300,000 active; AID 2216;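 active = most replicates above 15%; inconclusive = exactly half above 15%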;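 note: 0% = DMSO wells and 100% = Ran loaded with GDP instead of GTP; wells of about 40 µL received 100 nL stock; the first replicate is given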
Vif A3G = HIV-1 Vif–A3G interaction blockers – biochemical, TR-FRET, GST-Vif 1-94, biotin-A3G peptide, dose response retest, primary screen (AID 1117319). inhibition, %; hits with a dose series show IC50 in µM. 0.57% of 260,000 active. TR-FRET GST-Vif / biotin-A3G peptide binding; higher % means a stronger effect; test concentration not given here; strong numbers were not always called active;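 active = above the screen mean plus three standard deviations and confirmed in dose response; inconclusive = results disagree or hit not tested in dose response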;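 note: Vif residues 1-94 fused to GST binding biotinylated APOBEC3G peptide 110-148; 0% = full assay without inhibitor and 100% = GST in place of GST-Vif; retest series ran down from 100 µM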
Ecoli rRNA inh OD600 = further read-out of Ecoli rRNA inh, marked with its call; OD600 change, %; measured here: OD600 growth;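 optical density of the mix in the first replicate; 0 = DMSO median and -100 = no signal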
Ecoli rRNA inh RFP = recorded beside Ecoli rRNA inh, whose call it bears; RFP signal change, %; measured here: RFP humanized mutant strains;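 first replicate; 0 = DMSO median and -100 = no signal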
Numbers without * were called inactive; ? = inconclusive; · = no result given; & = joins results of further samples. This is a subset. The share of hits here may be higher or lower than overall.

SMILES	T cruzi inh	A1 inh	MLL AF4-AF9 inh	Beta apoptosis	Calb FLC	Ecoli rRNA inh	Ecoli rRNA inh OD600	Ecoli rRNA inh RFP	RanGTP-Imp inh	Vif A3G
Cc1ccc(NC(=O)Cn2nnc3ccccc3c2=O)cc1	0	0.3	-1.0	0	-8	14	15	0.6	-4.3	·
CCc1ccc(-c2n[nH]c(=O)c3ccccc23)cc1	-6	0.1	-3.2	-1	-5	6	16	-0.1	-4.4	-6%
O=C(NCc1ccccn1)Nc1cc(Cl)cc(Cl)c1	3	-0.1	-0.8	10	-9	-68	-80	-27	-1.7	-9%
O=C(COc1ccccc1Cl)N1N=C(c2cccs2)CC1c1ccco1 (stereo unspecified)	·	1.0	11	2	·	-19	-14	12	·	-13%
CN1CCN(c2ccc(NC(=O)CN3CCOCC3)cc2F)CC1	-2	-1.3	-1.3	-3	-17	8	6	-5.7	-2.0	-1%
CCC(C(=O)OC)n1cnc2c(nnn2-c2ccccc2)c1=O (stereo unspecified)	4	-0.8	0.5	-5	7	1	5	-0.8	5.2	·
Cc1cc2ccccc2nc1SCC(=O)N1c2ccccc2CC1C (stereo unspecified)	23	0.5	·	-2	-3	·	·	·	2.3	0%
Nc1nc2ccccc2nc1N1CCCC1	-9	-0.8	6.5	-1	6	-2	4	17	1.1	0%
CCCN(CCC)CCCNC(=O)c1cc2c(=O)[nH]c3ccccc3c2n1C	14	-0.3	0.0	3	-17	-11	1	2.4	·	0%
CCSc1nnc(Cn2c(=O)sc3ccccc32)n1-c1ccccc1C	9	0.0	-3.0	2	6	-8	-10	-0.3	0.7	?
NS(=O)(=O)c1ccc2nc(NC(=O)Nc3ccccc3F)sc2c1	-6	-3.8	5.7	2	12	-4	-21	-4.6	-4.2	·
Cc1ccc(C(=O)OC(C)C(=O)NC2CCCCC2C)cc1S(=O)(=O)N1CCCCC1 (stereo unspecified)	2	0.1	1.4	0	2	-5	-10	-4.1	-4.5	-6%
CCC(=O)Nc1ccc2ccccc2c1	-3	0.4	·	-3	0	·	·	·	-1.6	-4%
O=c1c2cc(N3CCOCC3)ccc2[nH]c(=S)n1CCCN1CCCCCC1	8	-0.1	·	5	?	·	·	·	-3.5	10%&3%
Cc1ccccc1CN1C(=O)CSc2ccc(C(=O)N3CCOCC3)cc21	2	-0.6	·	0	-2	·	·	·	2.3	5%
CC(C)Oc1ccc(C(=O)NCCCNC(=O)c2ccccn2)cc1	5	-0.8	2.1	-8	8	0	1	-1.1	-0.5	·
COc1ccc(/C=C/C(=O)NC(=S)Nc2cc([N+](=O)[O-])ccc2O)cc1OC	1	0.7	1.9	-1	0	-17*	0.2*	0.6*	-2.2	8%
COc1ccc(S(=O)(=O)N2CCOCC2)cc1NC(=O)CSc1nnc(C2CC2)n1C	·	0.1	-0.5	3	·	5	8	0.9	·	·
O=C(CC1OC(=O)c2ccccc21)Nc1ccccc1N1CCOCC1 (stereo unspecified)	-9	0.9	·	-3	10	·	·	·	-3.5	5%
COc1cccc(CC2(CO)CCCN(Cc3ccc(CO)o3)C2)c1 (stereo unspecified)	-18	-0.3	-0.6	2	-10	-2	-1	1.1	-2.0	-7%
CCCCN(C(=O)CN1CC(C)OC(C)C1)c1c(N)n(CC(C)C)c(=O)[nH]c1=O (stereo unspecified)	11	0.3	-0.9	-5	0	·	·	·	7.1	15%
COC(=O)c1ccc(C2/C(=C(\O)c3cccc(OC)c3)C(=O)C(=O)N2CCCN(C)C)cc1 (stereo unspecified)	-8	-1.0	-1.2	-3	3	·	·	·	5.9	-8%
CCCNc1nc2c(c(=O)n(C)c(=O)n2C)n1Cc1cccc(C)c1	-46	-0.5	-13	37	-9	4	0	-1.8	-3.8	15%
Cc1cc(NC(=O)COC(=O)CCNS(=O)(=O)c2ccccc2)n(-c2ccccc2)n1	-12	0.1	-2.3	-4	-1	14	6	-0.4	-0.4	0%
CCOC(=O)c1c(C)[nH]c(C(=O)OCC(=O)NCCc2ccc(OCC)c(OCC)c2)c1C	9	1.6	1.6	7	-2	2	8	-2.0	·	·
COc1ccc(CCNC(=O)CCN2C(=O)C3CC=CCC3C2=O)cc1OC (stereo unspecified)	-9	?	·	-1	0	·	·	·	-2.5	29%
CC(CC(=O)Nc1ccncc1)c1ccccc1 (stereo unspecified)	-1	0.2	·	1	28	·	·	·	0.5	2%
CCCCn1c(SCC2CCCO2)nc2cc(S(N)(=O)=O)ccc21 (stereo unspecified)	-3	0.0	·	-2	-2	·	·	·	-0.2	-3%
O=C(COC(=O)/C=C/c1ccc(Br)o1)Nc1ccc2[nH]c(=O)[nH]c2c1	-15	1.5	-0.2	·	1	13	6	0.6	3.9	·
O=C(NN1C(=O)CSC1=S)C(=O)NN1C(=O)CSC1=S	13	0.6	-8.6	3	41	0	-9	60	1.3	?
Cc1ccc2nc(SCC(=O)N3c4ccccc4CC3C)c(C)cc2c1 (stereo unspecified)	12	-0.1	·	2	-6	·	·	·	-2.6	-12%
CCCNC(=O)COC(=O)CCC(=O)c1cccs1	16	-1.1	-0.4	-7	-5	14	12	0.0	-3.0	·
CCCCn1c(N)c(N(CCOC)C(=O)COC(=O)COc2c(C)cccc2C)c(=O)[nH]c1=O	7	0.0	-0.6	-2	2	1	-5	-2.3	0.1	-2%
C/C(=C1/SC(N2CCOCC2)=NC1=O)c1ccc(Br)cc1	-8	0.1	·	6	1	·	·	·	1.3	26%
CC(C)N(Cc1nc(-c2ccccc2)no1)C(=O)C(C)(C)C	-6	-0.1	·	·	-1	·	·	·	-1.6	1%
CC(NC(=O)c1ccco1)C(=O)NC(C)c1cc(F)c(Cl)cc1Cl (stereo unspecified)	-3	0.1	-0.9	0	2	-1	-1	-1.5	1.8	-2%
COc1ccc(OC)c(NC(=O)N[C@H](Cc2ccccc2)C(=O)NN)c1	-18	2.2	-2.1	·	-1	4	19	-0.2	-6.5	·
Cc1c(S(=O)(=O)N2CCN(c3cccc(C(F)(F)F)c3)CC2)c(=O)n(C)c(=O)n1C	5	-0.1	-40	-8	-3	·	·	·	2.7	5%
COc1ccc(OC)c(S(=O)(=O)Nc2c(C)nn(C)c2C)c1	·	-0.6	-1.9	-4	·	·	·	·	·	-7%
NC(=O)CSc1nnc(-c2cnccn2)n1Cc1ccco1	8	1.2	-0.1	-2	3	16	6	1.7	5.9	3%
COC(=O)c1sccc1NC(=O)Nc1cccc(Cl)c1Cl	-16	-0.1	·	-1	-10	·	·	·	-4.0	2%
Cc1nc2ccccc2cc1OCc1ccccc1	-12	-0.3	·	43	107*	-36	-36	-18	3.0	32%
O=C(c1cccs1)N1CCN=C1SCc1ccc(F)cc1	0	0.1	-11	-7	-3	4	-6	-3.1	6.9	9%
CCC(Cc1ccccc1)NC(=O)C1CCC(CNc2c(N3CCCC3)c(=O)c2=O)CC1 (stereo unspecified)	-18	0.5	-1.0	·	4	-1	3	0.4	-1.6	-1%
COC(=O)c1ccc(COc2ccc(Cl)cc2)o1	-9	-0.6	1.3	-10	-3	-7	-8	-1.7	0.5	0%
Cc1cc(C)nc(N2CCCC(C(=O)Nc3cc(F)ccc3C)C2)n1 (stereo unspecified)	0	-0.4	·	0	21	6	7	-1.5	0.4	-1%
CC(N=C1NS(=O)(=O)c2ccccc21)C(=O)NCc1ccc2c(c1)OCO2 (stereo unspecified)	-3	0.3	·	0	-19	·	·	·	4.3	10%
C=CCOc1c(Cl)cc(/C=N/O)cc1OC	-3	0.1	2.0	6	33	7	8	5.3	?	0%
CC1=C(C(=O)Nc2ccccc2F)C(c2ccsc2)C2=C(CC(C)(C)CC2=O)N1 (stereo unspecified)	-12	0.6	-7.3	1	?	-8	-10	-1.2	?	1%
O=C(NCc1ccc(Cl)cc1)c1cc(-c2cccs2)on1	-11	0.3	·	2	-12	·	·	·	-3.3	13%

Carrying on.
SMILES	T cruzi inh	A1 inh	MLL AF4-AF9 inh	Beta apoptosis	Calb FLC	Ecoli rRNA inh	Ecoli rRNA inh OD600	Ecoli rRNA inh RFP	RanGTP-Imp inh	Vif A3G
Cc1ccc(-c2c(C#N)c(N)nc3c2CCCC3)s1	-5	-0.1	·	5	-1	·	·	·	22*	-1%
Cc1nn(C(C)C(=O)NCc2ccc(Cl)cc2)c(=O)c2cc3occc3n12 (stereo unspecified)	7	0.0	-4.6	0	?	4	4	-0.1	7.9	-1%
CC(C)OP(=O)(c1ccc(N(C)C)cc1)C(O)c1cccnc1 (stereo unspecified)	-2	-0.5	4.0	·	14	-2	5	-1.4	2.2	15%
CCCOc1ccc2c3c(c(=O)oc2c1)CCCC3	24	0.2	·	9	-8	·	·	·	2.9	-4%
COc1ccc(C(=O)COC(=O)CNC(=O)c2ccc(Cl)cc2Cl)c(OC)c1	-6	-0.4	-0.1	-7	7	-1	-1	-2.4	0.2	3%
CCCN1C(=O)C(NC(C)=O)c2ccccc21 (stereo unspecified)	-17	0.7	·	-1	-22	·	·	·	5.9	20%
COc1cc(CNc2ccc(O)cc2)cc(Br)c1OCc1ccccc1F	2	1.2	·	5	16	·	·	·	-3.2	·
Cc1ccc(C2N(c3ccccc3)C(=O)N3CCCN23)cc1 (stereo unspecified)	-20	-0.4	-2.3	-5	18	11	10	-2.5	?	-1%
COc1cccc(NC(=O)c2ccccc2-c2ccccc2)c1	7	0.3	0.4	6	12	-1	4	1.9	-2.9	16%
NS(=O)(=O)c1ccc(CCNC(=O)C2CCC(CNS(=O)(=O)c3ccc(Br)s3)CC2)cc1 (stereo unspecified)	-5	0.2	-0.4	·	12	12	17	0.0	-1.2	4%
O=C(c1cccnc1)n1nc(NCc2ccccc2)nc1NCc1ccccc1	-1	-0.4	?	-1	0	-35*	-22*	-6.2*	-2.0	3%
CCN(C(=O)COC(=O)c1cc(NS(=O)(=O)c2ccc(Cl)c([N+](=O)[O-])c2)ccc1O)C1CCCCC1	10	-0.9	·	4	2	·	·	·	?	·
CCN(C(=O)CSc1nnc(-c2ccco2)n1C)c1c(N)n(Cc2ccccc2)c(=O)[nH]c1=O	·	1.1	0.7	-11	·	4	9	-0.9	·	-15%
CCOc1ccccc1N1CCN(C(=O)c2csc(C)c2CC)CC1	7	0.0	2.2	2	42	-33	-37	-2.1	-2.2	·
O=C(O)c1ccc(S(=O)(=O)NC2CCCCCC2)cc1	-3	0.1	-8.0	0	36	10	6	-0.7	0.7	·
Cc1ccc(NC(=O)CN(C)C(=O)CNC(=O)c2ccc3c(c2)OCO3)cc1	-7	-4.1	0.6	-3	2	-10	-10	-3.4	2.9	-1%
